FGF22 binding: shifts melting point of recombinant human FGF22; AID 651658; calls only at 9.99 µM; 340,000 compounds, 1.5% hits; recombinant FGF22 thermal shift, SYPRO orange fluorescence; percent of sucrose octasulfate shift, DMSO zero; Q9HCT0;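 active = melting point raised past a set limit in the mean and every replicate; inconclusive = no clear call; three in four hits are not shown here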
Target sequence (Q9HCT0 whole entry, looked up): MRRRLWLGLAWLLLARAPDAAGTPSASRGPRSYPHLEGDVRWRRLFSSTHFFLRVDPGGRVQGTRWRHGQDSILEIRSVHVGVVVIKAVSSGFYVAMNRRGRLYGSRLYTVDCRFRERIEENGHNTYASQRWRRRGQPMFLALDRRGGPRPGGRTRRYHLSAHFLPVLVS
MLL AF4-AF9 inh: inhibitors of human MLL-AF4/AF9 interaction; AlphaScreen, biotin-AF4 peptide binding to FLAG-AF9; 350,000 compounds, 0.47% hits; inhibition, % at 10 µM; P42568; AID 651704;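 active = every replicate reaching a set inhibition limit, whatever the replicate mean, cut at about 25% in these data; inconclusive = mean inhibition reaches that limit but some replicates miss it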;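 note: 0% = plate neutral control median and 100% = total signal loss; the record names both 10 and 1 µM as test concentration; the first replicate is given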
Target sequence (P42568 whole entry, looked up): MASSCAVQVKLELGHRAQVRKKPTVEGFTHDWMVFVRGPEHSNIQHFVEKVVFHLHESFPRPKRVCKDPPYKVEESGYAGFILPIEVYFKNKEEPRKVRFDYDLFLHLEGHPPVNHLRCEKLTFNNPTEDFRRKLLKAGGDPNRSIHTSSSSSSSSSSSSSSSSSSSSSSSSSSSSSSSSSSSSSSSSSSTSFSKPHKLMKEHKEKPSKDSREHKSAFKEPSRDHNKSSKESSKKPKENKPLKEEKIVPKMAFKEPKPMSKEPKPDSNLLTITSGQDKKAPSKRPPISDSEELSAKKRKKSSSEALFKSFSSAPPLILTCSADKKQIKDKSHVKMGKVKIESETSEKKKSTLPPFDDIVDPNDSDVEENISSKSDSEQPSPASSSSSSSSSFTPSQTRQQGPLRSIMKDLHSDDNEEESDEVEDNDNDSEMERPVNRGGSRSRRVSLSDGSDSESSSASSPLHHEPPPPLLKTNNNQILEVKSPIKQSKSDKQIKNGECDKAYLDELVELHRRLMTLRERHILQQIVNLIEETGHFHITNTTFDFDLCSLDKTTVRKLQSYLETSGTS
Calb FLC: affects C. albicans growth with fluconazole | C. albicans CaCi-2 (fluconazole-resistant clinical isolate) + fluconazole, Alamar Blue growth, 48 h | growth inhibition, % (test concentration not listed) | 300,000 compounds, 0.57% hits | AID 1979;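 active = most replicates above 75%; inconclusive = exactly half above 75%; inactive = most below 75%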;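 note: all wells also contain fluconazole at 8 µg/ml as a sub-toxic cotreatment; 0% = median of DMSO wells and 100% = median of geldanamycin control wells; wells of about 8 µL received 7.5 nL stock; the first replicate is given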
T cruzi inh: T. cruzi replication inhibition; T. cruzi beta-gal in NIH3T3, luminescence, 90 h; inhibition, % (no concentration beside the values); 300,000 compounds, 1.4% hits; AID 1885;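 active = mean inhibition across valid replicates above about 55%, limit read from the data; inconclusive = mean below that limit but half or more replicates reach it; inactive = mean below it, under half of replicates reach it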;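 note: signal also drops with host cell toxicity which is not excluded here; 0% = plate median of DMSO wells and 100% = zero luminescence signal; higher percent means less beta-gal luminescence so fewer parasites; stock transfer was 50 nL into about 50 µL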
RanGTP-Imp inh: disruptors of Ran-importin-beta complex formation – biochemical, FRET, CFP-Ran, YFP-importin-beta, homogeneous, primary screen; cell-free CFP-Ran/YFP-importin-beta FRET ratio; inhibition, % (concentration not given with the values); 300,000 compounds, 1.1% hits; AID 2216;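 active = most replicates above 15%; inconclusive = exactly half above 15%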;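 note: 0% = DMSO wells and 100% = Ran loaded with GDP instead of GTP; wells of about 40 µL received 100 nL stock; the first replicate is given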
Beta apoptosis: beta cell apoptosis inhibition. INS-1E cytokine-induced death, ATP luminescence, 48 h; percent of positive-control rescue, neutral wells zero. protection from apoptosis, % (concentration not given with the values). 300,000 compounds, 0.8% hits;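 active = all replicates at 75% or more, or half of them and the mean; inconclusive = half reach 75% but not the mean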;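 note: 0% = cytokine-treated negative control wells and 100% = positive control rescue; higher means more ATP so stronger rescue from cytokine killing; wells of about 40 µL received 100 nL stock; the first replicate is given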
rRNA inh HTS: inhibits bacterial ribosomal RNA function over humanized ribosomes | E. coli WT GFP vs humanized-ribosome RFP mutants, fluorescence, 24 h; stronger effect = lower value; DMSO median 0, no signal -100 | GFP signal change (wild-type ribosome), % (no concentration beside the values) | 350,000 compounds, 1.6% hits | AID 720706;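 active = significant combined selectivity score with lowered wild-type GFP, culture density cut under 30%, mutant RFP and density less affected; inactive = any of these conditions unmet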; note: one replicate is shown; some compounds called inactive have numbers as strong as hits
ALR H2O2 inh: blocks human ALR sulfhydryl oxidase activity; P55789; inhibition, % (concentration not given with the values); purified ALR, DTT oxidation, H2O2 HRP-luminol luminescence; 290,000 compounds, 3.8% hits;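 active = mean and each replicate at 75% or more; inconclusive = only one of the two met; inactive = neither met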;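 note: stock transfer was 7.5 nL into about 7.5 µL; 0% = neutral wells and 100% = wells with inactivated enzyme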
Target sequence (P55789 whole entry, looked up): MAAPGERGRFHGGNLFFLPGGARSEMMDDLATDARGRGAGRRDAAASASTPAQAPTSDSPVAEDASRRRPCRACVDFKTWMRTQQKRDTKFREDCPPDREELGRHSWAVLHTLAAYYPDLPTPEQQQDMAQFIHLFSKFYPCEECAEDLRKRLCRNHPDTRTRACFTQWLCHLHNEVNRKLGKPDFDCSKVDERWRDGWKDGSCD
rRNA inh HTS OD600: second read-out of rRNA inh HTS, no call of its own (marks repeat the call); OD600 change, %; measured here: OD600 growth;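 optical density of the mix in the first replicate; 0 = DMSO median and -100 = no signal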
rRNA inh HTS RFP: further read-out of rRNA inh HTS, marked with its call; RFP signal change, %; measured here: RFP humanized mutant strains;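 first replicate; 0 = DMSO median and -100 = no signal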
* hit, by the source's call; i = inactive; ? = inconclusive; . = no result given. Not all compounds are listed, so the mix of outcomes need not match the whole.

Molecule	FGF22 binding	MLL AF4-AF9 inh	Calb FLC	T cruzi inh	RanGTP-Imp inh	Beta apoptosis	rRNA inh HTS	rRNA inh HTS OD600	rRNA inh HTS RFP	ALR H2O2 inh
COc1ccc(C(=O)COC(=O)CN2C(=O)C3C4C=CC(C5CC45)C3C2=O)cc1 (centres undefined)	i	-8.4	-6	-12	4.5	.	.	.	.	0
O=C(O)C(C(=O)/C=C/c1ccco1)=C1SCCS1	.	.	-3	3	5.7	-3	.	.	.	18
C/C(CC(=O)NC1CCCCCC1)=N\NC(=O)c1cnccn1	i	1.9	-1	-8	-4.4	-2	10	16	5.5	.
CCNC(=S)NNC(=O)c1cccn(Cc2ccc(Cl)cc2)c1=O	.	.	-9	-6	2.4	-3	.	.	.	44
O=C(c1nc2ccccn2c1CNCCCn1nnc2ccccc21)N1CCOCC1	i	-1.0	2	16	?	-6	11	5	-0.1	-5
Cc1cc(C(=O)NC2CCN(Cc3ccccc3)CC2)n[nH]1	i	1.4	-8	15	-2.2	-4	1	16	-1.2	-8
COc1ccccc1OCCCn1c(=O)sc2ccccc21	.	.	3	9	-4.7	-7	.	.	.	-4
O=C(NNS(=O)(=O)c1ccccc1)c1sccc1-n1cccc1	.	.	11	-6	-0.4	-3	.	.	.	51
COc1ccc2nc(-c3ccccc3)cc(C(=O)OCC(=O)N3CC(C)OC(C)C3)c2c1 (centres undefined)	i	-34	.	.	.	1	-16	-18	8.4	-10
CC(C)(C)N1C(=O)[C@H]2[C@@H](c3ccc(Br)cc3)N3C(=O)N(c4cccc(Cl)c4)C(=O)[C@@]3(Cc3ccccc3)[C@H]2C1=O	i	-1.0	25	25	0.1	5	2	8	-0.8	3
COc1ccc(/C=N/n2c(C)nc3sc(C)c(C)c3c2=O)cc1	i	-0.7	1	14	0.2	-1	-5	2	-1.5	1
Cc1nn(-c2ccccc2)c(C)c1/C=C/C(=O)OCC(=O)Nc1ccc(S(N)(=O)=O)cc1	i	4.3	.	.	.	-1	3	2	2.6	-2
CCN(CC)C(=O)CSc1nnc(-c2ccc(S(=O)(=O)N3CCCC3)cc2)o1	.	.	-4	4	-4.3	-2	.	.	.	-26
Cc1nnc(NC(=O)CSc2nnc(-c3ccc(S(=O)(=O)N4CCCC4)cc3)n2C)s1	.	.	3	.	-1.1	-4	.	.	.	1
Cc1nn(CC(=O)Nc2ccc(Cl)cc2Cl)c(=O)c2ccccc12	i	-4.5	-8	10	0.6	3	5	7	-1.6	.
CCOc1ncccc1C(=O)OCC(=O)c1ccc(OC)c(OC)c1	i	-0.3	1	-11	1.4	-5	9	6	2.2	12
CCc1noc(C)c1C(=O)Nc1nc(-c2ccc(F)cc2)c(C)s1	i	-2.4	-14	27	4.1	8	1	9	1.5	5
O=S(=O)(Nc1cccnc1Cl)c1ccc2c(c1)OCCO2	i	1.3	-22	-2	?	-4	4	-4	-14	7
O=C(COC(=O)c1ccccc1O)NC(c1ccccc1)c1ccccc1	i	0.4	.	.	.	-3	23	38	3.1	-1
Cc1cc2c(cc1C)/C(=N/NC(=O)c1ccccn1)CCC2	i	3.3	-5	3	-0.4	-10	3	5	-0.1	0
O=C(NCC(=O)N1CCCCCC1)c1ccc(OC(F)F)cc1	i	-4.3	-6	0	2.6	1	5	4	-2.1	-9
COC(=O)C1=C(C)NC(C)=C(C(=O)OC)C1c1ccco1	i	-0.8	-4	-6	3.1	-1	13	0	1.2	-12
c1ccc2c(c1)oc1c(Nc3ccc4c(c3)OCCO4)ncnc12	i	0.7	28	-10	1.4	5	7	-4	0.2	-4
CCOCCNC(=O)c1ccc2c3c(cccc13)CC2	.	.	1	-5	-1.5	-5	.	.	.	-3
Cc1cc(NCC(C)C)n2ncnc2n1	.	.	-9	-2	2.9	-4	.	.	.	-1
COC(=O)C1(C#N)C(c2ccccc2)C1(C(=O)OC)C(=O)OC (centres undefined)	.	.	6	-3	-3.8	-8	.	.	.	1
Fc1ccc(NC(=S)Nc2ccc(F)c(Cl)c2)cc1Cl	.	.	5	35	-6.6	37	.	.	.	9
COc1ccc(S(=O)(=O)N(C)CC(=O)Nc2ccc3c(c2)OCCO3)cc1	.	-2.4	-5	-2	-5.3	2	-12	-9	1.2	.
Cc1ccc(NC(NC(=O)c2ccccc2[N+](=O)[O-])C(Cl)(Cl)Cl)cc1 (centres undefined)	.	.	-19	-17	?	5	.	.	.	99*
O=C(COc1cccc(F)c1)Nc1ccc2[nH]c(=O)[nH]c2c1	i	0.6	-5	-9	2.0	3	10	9	-0.9	-5
O=C(NCc1cccs1)C(=O)c1c[nH]c2ccccc12	i	-0.8	-4	-11	?	-3	9	0	5.5	-5
CSc1ccc(/C=C/C(=O)OCC(=O)c2ccc[nH]2)cc1	i	-5.0	.	.	.	-4	-12	1	3.7	-1
COc1ccc(-c2cc3c(=O)n(CC(=O)NCc4ccc(C)cc4)ncn3n2)cc1	i	7.7	7	-2	1.0	17	0	8	-5.2	-8
Cc1cc(C)c(C(=O)COC(=O)CNC(=O)c2ccccc2C)c(C)c1	i	-0.9	3	-36	3.1	-2	-7	-15	6.7	-7
CC(C(=O)NN)n1nnc(N2CCOCC2)n1 (centres undefined)	i	-0.3	-12	.	-0.2	0	.	.	.	-9
COc1ccc(C)cc1S(=O)(=O)N1CCCCC1	.	.	0	-11	-0.6	-6	.	.	.	-6
CCc1ccc(NC(=O)CSc2nnc(CC)c(CC)n2)cc1	.	.	4	5	-0.7	-10	.	.	.	-12
OCC1CCCCN1C(=S)Nc1cccc(Cl)c1 (centres undefined)	i	2.3	-9	-2	?	-4	-14	-1	0.1	-4
C[C@H](O)Cc1cn(-c2cc3cc(C#Cc4ccsc4)ccc3oc2=O)nn1	i	.	.	.	.	-6	4	6	-1.8	-5
Cc1ccc(NC(=O)Cn2c(O)c(N=NC(N)=O)c3ccccc32)cc1	i	-1.4	-6	?	3.2	-2	7	1	3.5	-2
CC1CCCCN1Cc1c(O)ccc2c(=O)c(-c3ccc(Cl)cc3Cl)coc12 (centres undefined)	i	-7.7	0	-7	1.9	.	-2	-6	2.4	-2
CSc1ncc(C(=O)Nc2cc(C)ccc2C)c(C)n1	i	-7.2	5	5	-0.6	-4	5	2	1.3	-4
CC(C)CC(=O)Nc1ccc(C(=O)COC(=O)C2CCC2)cc1	i	0.2	39	-21	2.2	-2	11	11	0.2	-17
CCN1C(Nc2ccccc2)=NC[C@@H]1CC(C)C	i	-0.4	-5	-4	2.1	-3	15	6	12	5
Nc1c(C(=O)c2ccc(F)cc2)oc2ccccc12	.	.	36	-19	-0.1	-1	.	.	.	24
CCOC(=O)c1cc(-c2ccccc2)sc1NC(=O)C(C)(C)C	.	.	-21	22	6.1	-5	.	.	.	-8
Cc1nnc(SCC(=O)N(C)CC(=O)Nc2ccc(F)cc2)n1Cc1ccccc1	i	-1.5	-8	-6	2.2	-1	3	3	2.1	-9
C=CCSC1=C(C#N)C(c2ccccc2OCC)C(C#N)C(=O)N1 (centres undefined)	.	.	7	-22	-0.1	.	.	.	.	9
CCN(CC)c1ccc(S(=O)(=O)N2CCOCC2)cc1NC(=O)CSc1nnc(N)s1	i	1.0	-2	10	2.9	-5	1	-7	1.0	-3
CCCc1nc(N)sc1C(=O)OCC	.	.	-2	-13	-2.2	-3	.	.	.	-8
CC(=O)Oc1ccc(NC(=O)CCC2CCCCC2)c(C(=O)O)c1	.	.	15	-18	-1.6	-5	.	.	.	10
CCN(CC(=O)Nc1ccc(NC(C)=O)cc1)C(=O)Cc1cccc2ccccc12	i	-1.0	0	-2	5.0	-3	-1	-1	2.0	3
COc1ccccc1N1CCN(/N=C\c2cccnc2)CC1	i	9.0	3	6	-2.7	-2	8	6	-1.8	.
COc1ccc(Cc2nc(-c3ccccn3)no2)cc1	.	.	-2	-11	4.5	-5	.	.	.	1
COc1ccc(S(=O)(=O)N2CC(C(=O)O)Oc3ccccc32)cc1 (centres undefined)	i	-1.5	2	-6	?	3	9	6	-0.5	2
CCOC(=O)c1ccc(NC(=O)c2nn(C)cc2Br)cc1	.	.	-7	1	2.1	9	.	.	.	-2

Additional results
Molecule	FGF22 binding	MLL AF4-AF9 inh	Calb FLC	T cruzi inh	RanGTP-Imp inh	Beta apoptosis	rRNA inh HTS	rRNA inh HTS OD600	rRNA inh HTS RFP	ALR H2O2 inh
CC1(C)C2([N+](=O)[O-])CN3CC1([N+](=O)[O-])CN(C2)C3c1ccc(O)c(O)c1 (centres undefined)	i	-6.2	-4	1	2.7	-4	6	0	5.1	19
CN(CCCC(=O)NCCc1ccccc1)S(=O)(=O)c1ccc([N+](=O)[O-])cc1	i	3.4	0	46	?	0	2	8	-1.6	.
CCOC(=O)c1cc(CC)sc1NC(=O)CCC(=O)O	.	.	0	-18	5.0	.	.	.	.	32
O=S(=O)(Nc1ccc2c(c1)OCO2)c1ccccc1	.	.	-22	-6	-1.3	-5	.	.	.	36
CC12CCC(=O)N1C(C(=O)Nc1cc(S(=O)(=O)N3CCCCCC3)ccc1OCC(F)(F)F)CS2 (centres undefined)	i	0.2	-18	38	1.8	-1	-2	-17	-9.2	3
O=S(=O)(c1ccccc1)N1CCN(C(=S)NCc2ccccc2)CC1	i	2.0	-2	-2	-4.9	-7	-31	37	-3.3	-3
O=C(C1CN(S(=O)(=O)c2ccccc2)CCN1S(=O)(=O)c1ccccc1)N1CCCCCC1 (centres undefined)	.	.	-20	15	-0.7	0	.	.	.	4
C=CC[C@H]1CC(Cc2ccccc2)=C[C@H](CC=C)N1	i	11	-4	14	1.0	1	10	0	2.1	-4
CC(=O)Nc1cccc(/C(C)=N\NC(=O)c2ccc(Cn3nc([N+](=O)[O-])c(Cl)c3C)o2)c1	i	5.8	-1	-11	0.4	.	2	16	1.8	-7
